eIF4H FP inh – inhibitors of RNA binding by human eIF4H; Q15056; eIF4H fluorescence polarization binding assay; inhibition, % at 35 µM; hit rate 0.94% among 290,000; AID 2012;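 active = 50% or more with normal probe brightness, or confirmed in later tests; inconclusive = above 50% with abnormal brightness, or retests that disagree; inactive = below 50% or failed in later tests; about a fifth of its hits are not listed in these tables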;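 note: calls also rest on retests at 20 µM and on dose response follow-up; 0% = protein and probe with vehicle and 100% = probe without protein; strong numbers were not always called active; many hits fall short of the cut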
Env fusion inh – inhibitors of HIV Env-mediated cell fusion; HeLa-JRFL Env/CEM21 cell fusion, luciferase; inhibition, % at 12.3 µM; hit rate 1.1% among 360,000; AID 651610;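 active = mean replicate inhibition score of at least 50 and every replicate individually at or above 50; inconclusive = only one of the two criteria met; inactive = mean below 50 and not all replicates reaching 50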;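 note: 0% = plate neutral controls and 100% = maraviroc near 300 nM; one replicate is shown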
MT1-MMP act inh – blocks activation of human MT1-MMP; hit rate 0.061% among 360,000; GFP/RFP ratio change, % at 20 µM; AID 651647; HT1080 RFP-PRO-GFP cells, GFP/RFP ratio fluorescence, overnight; percent of plate control window, DMSO zero; P50281;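 active = GFP/RFP ratio change of at least 30% with cell ATP level not reduced by more than half and red fluorescence within 50% of control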; note: strong numbers were not always called active
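Test system: HT1080 cells expressing an RFP-PRO-GFP fluorescent reporter construct / Compound dosing: single-point 20 µM compound, 1% DMSO / Schedule: cells overnight before dosing, compound overnight, 37 °C, 5% CO2 / Evaluation: GFP/RFP fluorescence ratio / Control set: DMSO and RFP-L50D-GFP cell wells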
CSC inhib – cancer stem cell inhibition. cancer stem cell-like cells viability, luminescence. inhibition, % at 7.5 µM. hit rate 1.1% among 300,000. AID 2717;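 active = mean at 75% or more and at least half the replicates too; inconclusive = mean and replicates disagree; tested in HMLE shEcad cells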;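 note: 0% = median of negative and 100% = median of positive control wells; the first replicate is given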
UUG fidelity – yeast start codon fidelity modulation; hit rate 0.13% among 350,000; S. cerevisiae UUG-firefly luciferase reporter, luminescence/redox ratio; activity score, % at 18.7 µM; AID 602363;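 active = replicate mean at a twofold rise or more, about +100% in these data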;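 note: firefly luciferase made from a UUG start codon reports start codon fidelity; reporter light over untreated wells divided by growth signal over untreated wells; some hits fall short of that in this replicate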
Rce1 inh – inhibitors of yeast Ras-converting enzyme. calls only. AID 2563. Q03530. yeast membranes, quenched prenylated peptide cleavage fluorescence. hit rate 0.27% among 290,000;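 active = fall in fluorescence gain of 50% or more versus controls, with final raw signal at or below 3038400; inconclusive = same 50% fall but final raw signal above 3038400; inactive = fall in fluorescence gain under 50%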;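 note: plate controls were neutral control wells for no effect and wells lacking membranes for full effect; tested at 10 µM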
PABP FP inh – PABP-poly(A) binding inhibition. P11940. PABP-poly(A) RNA binding, fluorescence polarization. inhibition, % at 35 µM. hit rate 1% among 290,000;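 active = 50% or more with normal probe brightness, or confirmed in later tests; inconclusive = above 50% with abnormal brightness, or retests that disagree; inactive = below 50% or failed in later tests; about a fifth of its hits are not listed in these tables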;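 note: calls also rest on retests at 20 µM and on dose response follow-up; controls were probe without protein and protein plus probe with vehicle; some compounds called inactive have numbers as strong as hits; many hits fall short of the cut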
Target sequence (P11940 whole entry, looked up): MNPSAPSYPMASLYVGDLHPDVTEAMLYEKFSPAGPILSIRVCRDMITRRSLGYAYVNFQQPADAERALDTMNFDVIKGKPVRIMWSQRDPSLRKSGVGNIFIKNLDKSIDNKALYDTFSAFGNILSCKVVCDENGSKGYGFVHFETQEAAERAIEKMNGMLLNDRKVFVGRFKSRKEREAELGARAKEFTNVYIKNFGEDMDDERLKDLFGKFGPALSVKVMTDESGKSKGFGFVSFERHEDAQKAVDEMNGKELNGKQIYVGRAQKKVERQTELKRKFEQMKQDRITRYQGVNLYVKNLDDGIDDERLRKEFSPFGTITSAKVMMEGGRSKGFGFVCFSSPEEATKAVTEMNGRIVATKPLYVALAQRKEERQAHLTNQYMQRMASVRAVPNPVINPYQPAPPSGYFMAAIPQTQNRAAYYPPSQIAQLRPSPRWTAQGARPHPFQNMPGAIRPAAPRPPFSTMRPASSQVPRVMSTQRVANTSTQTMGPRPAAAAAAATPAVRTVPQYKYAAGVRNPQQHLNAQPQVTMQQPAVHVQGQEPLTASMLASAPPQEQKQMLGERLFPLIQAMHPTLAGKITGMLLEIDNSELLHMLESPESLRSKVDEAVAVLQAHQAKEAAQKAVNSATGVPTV
eIF4H FP inh retest – further read-out of eIF4H FP inh, marked with its call; inhibition, %; compound at 20 µM; confirmation average;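 mean of two retest wells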
PABP FP inh retest – recorded beside PABP FP inh, whose call it bears; inhibition, %; compound at 20 µM; confirmation repeats;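 mean of two retest wells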
MT1-MMP act inh RFP – second read-out of MT1-MMP act inh, no call of its own (marks repeat the call); RFP signal change, %; measured here: RFP expression control read;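 0 = vehicle wells; hits needed this value within 50% of zero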
Numbers without * were called inactive; i = inactive; u = inconclusive; x = no result given; & = joins results of further samples.

SMILES	eIF4H FP inh	Env fusion inh	MT1-MMP act inh	MT1-MMP act inh RFP	CSC inhib	UUG fidelity	Rce1 inh	PABP FP inh	others
Cc1cc(C)c(C#N)c(SCC(=O)Nc2ccc(S(=O)(=O)Nc3onc(C)c3C)cc2)n1	-9	17	1	9	-9	-20	i	11
Cc1ccc(Oc2ccccc2NC(=O)C2=COCCO2)cc1	x	-3	-4	-2	-4	x	i	x
O=C(c1ccco1)N1CCCC(c2nc3c(nnn3Cc3ccccc3)c(=O)[nH]2)C1 (stereo unspecified)	4	17	0	1	-14	2	i	1
CN(CC(=O)Nc1ccccc1Br)C(=O)c1ccncc1	-8	-22	-8	-5	-10	-19	i	32
CCCC1CC(c2csc(N)n2)CCO1 (stereo unspecified)	-3	x	-4	0	-4	-18	i	1
O=C(c1ccc(Oc2ccc([N+](=O)[O-])cc2Cl)cc1)N1CCCC1	13	14	-2	-4	-13	x	i	-2
O=C(CCCCCCN1C(=O)c2ccccc2C1=O)Nc1nccs1	1	u	-9	-9	-6	-5	i	3
CCOc1ccc(NC(=O)CCN2CCN(S(=O)(=O)c3cc(Cl)ccc3OC)CC2)cc1	-2	x	4	-7	5	-16	i	-5
CN(C)C(=O)c1cn(-c2ccccc2)nc1-c1cccs1	-7	-13	4	3	-7	4	i	-11
NS(=O)(=O)c1ccc(N2N=C(c3ccccc3)CC2c2cccc(Cl)c2)cc1 (stereo unspecified)	x	-23	-5	-1	x	2	x	x
CCOc1ccc(N=C2NC(=O)S/C2=C\c2ccc(OC)cc2)cc1	11	x	5	5	-6	-12	i	0
Cn1c(/N=C/c2ccc3c(c2)OCO3)nc2ccccc21	1	x	2	0	-7	-24	i	2
CC(=O)Nc1nc(-c2ccc(Cl)cc2)ns1	0	-25	-1	-7	14	x	i	12
O=C(COC(=O)c1ccc[nH]c1=O)Nc1ccc(S(=O)(=O)N2CCCC2)cc1	11	19	-1	3	-3	x	i	11
Cc1ccc(NC(=O)C2CCCN(C(=O)c3ccc(Cl)cc3)C2)cc1 (stereo unspecified)	-14	4	-2	-7	-18	x	i	0
COc1ccc(-c2nn(-c3ccccc3)cc2/C=N/NC(=O)c2cccc(S(=O)(=O)Nc3ccccc3OC)c2)cc1	3	7	0	1	18	x	i	5
N#Cc1cc(N)ccc1Sc1ccc(Cl)cc1	1	x	2	-2	x	-12	i	-12
COCCn1c(SCC(=O)Nc2ncc(Cl)c(C)c2Cl)nc2ccccc21	6	-2	5	8	-2	-13	i	7
CCNC(=O)COc1ccc(F)cc1C(=O)c1cnn(-c2ccccc2)c1	0	-14	4	5	17	-7	i	9
O=C(Nc1nc2cc3c(cc2s1)OCO3)c1cccc(N2C(=O)CCC2=O)c1	-2	-20	0	0	-12	-23	i	5
CC1CCN(c2ccc(NC(=O)c3cccnc3Cl)cc2)CC1	2	-5	0	1	-6	x	i	-9
COc1ccc(COc2cc(-c3cccc(OC)c3)nc3ccc(NC(=O)c4ccccc4)cc23)cc1	1	27	5	-6	45	-17	i	-4
CC(=O)c1c(C)[nH]c(C(=O)N2CCN(c3ccccn3)CC2)c1C	2	3	4	-4	4	-4	i	-1
O=C1c2ccccc2NC(c2ccc3c(c2)OCO3)N1O (stereo unspecified)	-12	x	5	4	-7	-3	i	-14
Cc1ccc(OCC(=O)NCCNC(=O)c2ccc(C)nc2)cc1	2	-18	-1	0	x	-8	i	4
CCOC(=O)Cc1csc(SCc2nc3sc4c(c3c(=O)[nH]2)CCC4)n1	0	x	-3	5	3	-6	x	3
Cc1ccsc1C(=O)N1CCc2ccccc2C1	-1	24	0	2	-2	-7	x	-7
COC(=O)c1c(N2C(=O)Nc3ccccc3N2O)sc(C)c1C	3	7	-6	2	0	-8	i	-8
COc1ccc(/C=N/NC(=O)c2nnn(-c3nonc3N)c2-c2cccc(OC)c2)cc1	-10	-5	-2	2	-20	-23	i	10
CCOc1cc(CNn2cnnc2SCC(=O)NC(C)(C)C)ccc1OCC(=O)NC(C)(C)C	-3	6	6	-2	-12	-5	i	-8
CSc1ccccc1NC(=O)COC(=O)c1c[nH]c(=O)[nH]c1=O	6	2	1	6	5	-6	i	-3
Cc1ccc(NC(=O)CSc2nsc(SCC(=O)Nc3ccc(C)cc3C)c2C#N)c(C)c1	-10	5	-1	-2	-3	x	i	5
CN(C)c1nc(N(C)C)nc(N2CC(CCl)OC2=N)n1 (stereo unspecified)	-13	4	1	3	2	x	i	5
O=C(O)c1ccc(CNC(=O)c2ccccc2NC(=O)c2cccc([N+](=O)[O-])c2)cc1	-5	6	4	3	-4	x	i	4
O=C(N/N=C/c1cccnc1)c1cc(-c2cccs2)nc2ccccc12	-2	11	-3	-4	38	-29	i	5
COc1c2ccoc2c(OC)c2oc(=O)ccc12	3	x	-4	2	-5	-8	i	19
COc1cc(S(=O)(=O)N2CCOCC2)c(OC)c(S(=O)(=O)N2CCOCC2)c1	x	-57	-3	0	6	-24	i	x
CCOC(=O)N1CCN(C(=O)c2ccc3nc(N4CCC(C)CC4)sc3c2)CC1	-13	x	2	-2	22	-24	i	-8
CC(=O)NC1c2ccccc2C(=O)N1Cc1ccccc1 (stereo unspecified)	-8	-1	0	3	-5	-14	i	-8
CCOc1ccc(Cc2n[nH]c(=S)n2N)cc1	3	x	4	-2	-9	x	i	-2
C[C@@H]1CN([C@@H](C)CO)C(=O)CCCn2nncc2CO[C@H]1CN(C)S(=O)(=O)c1ccc2ccccc2c1	x	-15	2	-3	x	2&-1	x	x
O=C(NCCCn1ccnc1)C(F)(F)C(F)(F)C(=O)NCCCn1ccnc1	10	-10	3	-2	-11	-18	i	0
COc1ccccc1/C=C/C=N/n1c(-c2ccc(C)cc2)n[nH]c1=S	2	x	3	0	2	x	i	-9
CN(CCC#N)C(=O)COC(=O)c1ccc(Cl)cc1O	1	-12	3	3	-12	-10	i	76	eIF4H FP inh retest=2;PABP FP inh retest=15
CCOc1ccccc1-c1c2cc(O)c(=O)cc-2oc2cc(O)c(O)cc12	u	x	-27	90	x	x	x	0
O=C(O)CSc1ncnc2scc(-c3ccccc3)c12	-7	3	2	-5	10	-15	i	-6
CC(Sc1nnc(C2CC2)n1N)C(=O)NC1CCCCC1C (stereo unspecified)	-7	-5	-2	-1	-49	15	i	-3
O=C(c1ccc2[nH]c(=O)c(=O)[nH]c2c1)N1CCc2ccccc21	1	2	-2	2	-13	6	i	1
O=C(O)c1ccccc1/C=N/Nc1ccc(S(=O)(=O)N2CCCC2)cc1[N+](=O)[O-]	-5	8	2	0	41	5	i	4
Cc1cccc(NC2=C(Cl)C(=O)OC2OC(=O)c2ccco2)c1 (stereo unspecified)	0	-2	-1	-1	x	x	i	-15
CN(CC(=O)Nc1cccc(F)c1)C(=O)CN1C(=O)NC2(CCCC2)C1=O	x	x	-3	3	-29	-32	x	x
O=C(c1ccccc1Cc1ccccc1)N1CCN(S(=O)(=O)c2ccccc2[N+](=O)[O-])CC1	x	-18	-7	-8	-8	9	i	x
CCOC(=O)CC1(NC(=O)C2CCC(=O)N(C3CC3)C2)CCCCC1 (stereo unspecified)	4	-4	1	4	x	x	i	6
COc1ccc(NC(=O)C2CC(=O)N(c3ccc(C)cc3)C2)cc1S(=O)(=O)N1CCCCC1 (stereo unspecified)	x	16	2	6	x	-16	x	x
O=C(Nc1ccccc1)c1ccc(NCc2ccco2)c(S(=O)(=O)N2CCOCC2)c1	-10	28	2	-3	-2	9	i	8
CON(C)S(=O)(=O)c1cccc(C(=O)NC2CCSc3ccccc32)c1 (stereo unspecified)	-14	-3	1	-3	-10	13	x	-7
Cc1cc(C)cc(OCC(=O)NN2C(=O)c3ccccc3C2=O)c1	3	-54	x	x	-5	x	i	-7
COc1cc(S(=O)(=O)NC(Cc2c[nH]c3ccccc23)C(=O)O)ccc1NC(C)=O (stereo unspecified)	12	11	0	4	13	-9	i	5
Cc1ccc(CNC(=O)CSc2nc3ccsc3c(=O)n2Cc2ccc(C(=O)O)cc2)cc1	4	-4	1	-2	5	x	i	9
COCCCNc1c2c(nc3ccccc13)CCC2	x	-7	0	4	x	-5	x	x

(listing goes on)
SMILES	eIF4H FP inh	Env fusion inh	MT1-MMP act inh	MT1-MMP act inh RFP	CSC inhib	UUG fidelity	Rce1 inh	PABP FP inh	others
O=C(NCc1ccccc1)/C(NC(=O)c1ccccc1)=C(/Sc1ccccn1)c1ccccc1	2	x	-2	-3	10	x	i	2
O=C(CCCN1C(=O)/C(=C/c2cccc(Br)c2)SC1=S)N1CCOCC1	9	0	3	-1	-2	-9	i	9
COc1ccc(Cn2c(=O)cc(C)[nH]c2=S)cc1	-10	4	6	3	-12	-20	i	-10
Cc1cc(C)cc(NC(=O)C2CCCN(c3ncccn3)C2)c1 (stereo unspecified)	8	2	0	0	x	-6	i	3
COc1ccc(NCc2ccccc2[N+](=O)[O-])cc1OC	82	x	9	7	-11	x	i	-5	eIF4H FP inh retest=-4;PABP FP inh retest=-3
COC(=O)[C@@]12CCCN1[C@H](c1ccc(-c3ccc(OC)cc3)cc1)[C@@H]1C(=O)N(C)C(=O)[C@@H]12	x	-10	-5	-4	1	-15	i	x
Cc1nc2ccccc2n1CC(=O)NC1CCCCCC1	15	-27	-32	-44	-7	-26	i	-3
COc1ccc(Cn2nnnc2C(CC(C)C)N2CCC(C(N)=O)CC2)cc1 (stereo unspecified)	-14	9	1	5	-10	x	i	0

By substructure, those above containing an NH in an aromatic ring.
SMILES	eIF4H FP inh	Env fusion inh	MT1-MMP act inh	MT1-MMP act inh RFP	CSC inhib	UUG fidelity	Rce1 inh	PABP FP inh	others
O=C(c1ccco1)N1CCCC(c2nc3c(nnn3Cc3ccccc3)c(=O)[nH]2)C1 (stereo unspecified)	4	17	0	1	-14	2	i	1
O=C(COC(=O)c1ccc[nH]c1=O)Nc1ccc(S(=O)(=O)N2CCCC2)cc1	11	19	-1	3	-3	x	i	11
CC(=O)c1c(C)[nH]c(C(=O)N2CCN(c3ccccn3)CC2)c1C	2	3	4	-4	4	-4	i	-1
CCOC(=O)Cc1csc(SCc2nc3sc4c(c3c(=O)[nH]2)CCC4)n1	0	x	-3	5	3	-6	x	3
CSc1ccccc1NC(=O)COC(=O)c1c[nH]c(=O)[nH]c1=O	6	2	1	6	5	-6	i	-3
CCOc1ccc(Cc2n[nH]c(=S)n2N)cc1	3	x	4	-2	-9	x	i	-2
COc1ccccc1/C=C/C=N/n1c(-c2ccc(C)cc2)n[nH]c1=S	2	x	3	0	2	x	i	-9
O=C(c1ccc2[nH]c(=O)c(=O)[nH]c2c1)N1CCc2ccccc21	1	2	-2	2	-13	6	i	1
COc1cc(S(=O)(=O)NC(Cc2c[nH]c3ccccc23)C(=O)O)ccc1NC(C)=O (stereo unspecified)	12	11	0	4	13	-9	i	5
COc1ccc(Cn2c(=O)cc(C)[nH]c2=S)cc1	-10	4	6	3	-12	-20	i	-10

This is a random part of the collection (roughly 2.9% active in at least one column).
